Screening results: PubChem, Fisher Drug Discovery Resource Center
NPYLR7 agonist: mosquito NPYLR7 agonism | HEK293T NPYLR7/Galpha15, GCaMP6s calcium fluorescence | 0.15% of 270,000 active | activation, % at 10 µM | AID 1259423; in the data active = activation above about 40%;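 note: 0% = vehicle and 100% = reference agonist at the receptor; some compounds past the cut are filed as inactive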
NPYLR7 agonist max-min: also measured in NPYLR7 agonist; calls as there; activation, %; measured here: Max-Min RFU normalised activation; some inactives read as strong as hits;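 span of the calcium signal over five minutes; 0% = vehicle and 100% = native peptide agonist; compound fluorescence can raise it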
The depositor's hits bear a star; & = joins results of further samples.

SMILES	NPYLR7 agonist	NPYLR7 agonist max-min
COc1ccccc1C(CC(=O)N1CCN(c2ccccc2OC)CC1)c1cn(C)c2ccccc12 (stereo not given)	24	20
O=C(c1cc(-c2ccccc2)n[nH]1)N(Cc1nccs1)C1CC1	14	11
CCCCCCCOc1ccc(C(=O)NC2C=CC(C(C(=O)OCC)c3cccc(OC)c3)C2)cc1 (stereo not given)	4	-1
O=C(c1ccc2oc(Cc3ccccc3)nc2c1)N1CCCC1c1ccc(F)cc1 (stereo not given)	2	1
Cc1cc(S(=O)(=O)NCc2ccc3c(c2)OCO3)c(C)c(C)c1C	4	2
O=C(c1cc(Cl)sc1Cl)N1CCSCC1CCO (stereo not given)	-20	-20
CN1CC2(CCCN(C(=O)C3(c4ccc(Cl)cc4)CCC3)C2)OC1=O (stereo not given)	6	-3
COc1ccc(CCN(C)C(=O)c2cc(-c3ccccc3F)nn2-c2cccc(C)c2)cc1OC	8	4
O=C(CCCc1c[nH]c2ccccc12)NNC(=O)COc1cccc(Br)c1	3	2
Cc1c(C(=O)N(C)Cc2nc3ccccc3s2)oc2c1C(=O)CCC2	-6	-2
Cc1nc2c(=O)n(CC(=O)Nc3ccc(F)cc3)nc(-c3ccc(Cl)cc3)c2s1	3	0
COCCN(Cc1nccn1Cc1ccc(C(F)(F)F)cc1)S(=O)(=O)c1ccc(OC)cc1	6	8

Arranged by molar mass (rising): 3 of the compounds above
SMILES	NPYLR7 agonist	NPYLR7 agonist max-min
O=C(c1cc(-c2ccccc2)n[nH]1)N(Cc1nccs1)C1CC1	14	11
O=C(c1cc(Cl)sc1Cl)N1CCSCC1CCO (stereo not given)	-20	-20
O=C(CCCc1c[nH]c2ccccc12)NNC(=O)COc1cccc(Br)c1	3	2

Some of the entries above, set out differently:
O=C(c1ccc2oc(Cc3ccccc3)nc2c1)N1CCCC1c1ccc(F)cc1 (stereo not given)
  NPYLR7 agonist: 2
  NPYLR7 agonist max-min: 1

Cc1cc(S(=O)(=O)NCc2ccc3c(c2)OCO3)c(C)c(C)c1C
  NPYLR7 agonist: 4
  NPYLR7 agonist max-min: 2

Reprinted at random: six records from the list, in no set order.
SMILES	NPYLR7 agonist	NPYLR7 agonist max-min
CN1CC2(CCCN(C(=O)C3(c4ccc(Cl)cc4)CCC3)C2)OC1=O (stereo not given)	6	-3
O=C(CCCc1c[nH]c2ccccc12)NNC(=O)COc1cccc(Br)c1	3	2
Cc1nc2c(=O)n(CC(=O)Nc3ccc(F)cc3)nc(-c3ccc(Cl)cc3)c2s1	3	0
COc1ccccc1C(CC(=O)N1CCN(c2ccccc2OC)CC1)c1cn(C)c2ccccc12 (stereo not given)	24	20
O=C(c1ccc2oc(Cc3ccccc3)nc2c1)N1CCCC1c1ccc(F)cc1 (stereo not given)	2	1
Cc1c(C(=O)N(C)Cc2nc3ccccc3s2)oc2c1C(=O)CCC2	-6	-2

(listing goes on)
SMILES	NPYLR7 agonist	NPYLR7 agonist max-min
COc1ccc(C)nc1NC(=O)CCc1ccsc1	-3	-3
Cc1nc2ccccn2c(=O)c1NC(=O)c1ccccc1F	3	0
CCN(C(=O)c1occc1C)C(Cc1ccc(F)cc1)C(C)C (stereo not given)	5	4
CN(C)CCCn1c2c(c(SCC(=O)Nc3cccc4ccccc34)nc1=O)CCC2	7	8
c1nc(NC2CCCCC2)c2c3c(sc2n1)CCCC3	0	-1
CC(C)(C)NC(=O)N(Cc1ccc(F)cc1F)CC1CC(c2cccc(F)c2)=NO1 (stereo not given)	15	11
CC(C)C(=O)NNS(=O)(=O)c1cc(F)cc(F)c1	5	4
O=C(COc1ccc(Cl)cc1Cl)NNC(=O)c1ccncc1	-9	-5
CCc1nnc(NC(=O)CSc2ccc(-c3sc(-c4cccs4)nc3C)nn2)s1	12	1
CC(=O)OCC(=O)N1CC(=O)N2CCc3c(F)cccc3C2C1 (stereo not given)	-1	12
COc1ccc(OC)c(S(=O)(=O)N2CCN(c3ncccc3NC(=O)c3ccc4c(c3)OCO4)CC2)c1	18	-1
COc1cccc(-c2cc(Cn3cc4ncccc4c3O)no2)c1	2	1
O=C(COCc1ccccc1)N(CCCN1CCOCC1)CC(=O)N(Cc1ccccc1)Cc1ccco1	-4	4
Cc1ccc(NC(=O)CN2CCC(C(=O)N3CCCC3)CC2)c(F)c1	6	0
Cc1c(-c2ccccc2)[nH]c2c(CNC(=O)CC3CCC(=O)N3)cc(Cl)cc12 (stereo not given)	3	0
O=C(NCC1CCCN(C2CCCCC2)C1)C1(c2ccc(Cl)cc2)CC1 (stereo not given)	12	3
CCCCN(Cc1cccn1C)C(=O)CN(CCCOCC)C(=O)c1cccc(OC)c1	16	12
CCC(C)NC(=O)CNc1ccccc1I (stereo not given)	-2	-2
COCc1nc(-c2cccc(CN3CCN(C(C)=O)CC3)c2)no1	1	0
Cc1cc(Oc2ccnc3cc(Cl)ccc23)c(C(C)C)cc1Cl	7	11
Cc1cc(C)n(-c2cc(NCCNC(=O)Nc3cccc(C(F)(F)F)c3)ncn2)n1	-5	-11
O=C(NCCn1ncc2c(=O)n(Cc3ccc(Br)cc3)cnc21)c1ccc2c(c1)OCO2	-3	-8
CC(C)c1ccc(CC(=O)N2CCC2(C)C(=O)NS(=O)(=O)c2ccc(C(C)(C)C)cc2)cc1 (stereo not given)	4	3
Cc1[nH]c2ccccc2c1N=Nc1ccc(SC(F)F)cc1	0	-1
COc1ccc(OC)c(NC(=O)CC(=O)N2C[C@H]3CC[C@H]2C3)c1	-1	-5
CC(NC(=O)CS(=O)C/C=C/c1ccccc1)c1ccc(F)cc1F (stereo not given)	0	-3
O=C(Cn1cc(C(F)(F)F)cc(Cl)c1=O)C12CC3CC(CC(C3)C1)C2	1	10
N#CC1(c2ccccc2)CCN(C(=O)C2CCCCC2C(=O)NC2CCN(Cc3ccccc3)C2)CC1 (stereo not given)	-7	-11
CCN(CCN1CCOCC1)Cc1cccc2c1OCO2	11	7
CCC(=O)NC(=S)Nc1ccc(C(=O)NC(C)(C)C)cc1	-4	-6
CCOc1ccccc1CCNC(=O)c1cc2n(n1)CCN(C)C2	9	0
CC(C)c1noc(C(C)NC(=O)c2cc3ccccc3n2C)n1 (stereo not given)	-2	-2
COc1ccc(N2CCn3c2nc2c3c(=O)n(CCC(C)C)c(=O)n2C)cc1	4	0
Cc1cc(N2CCN(CCO)CC2)n2nc(C(F)(F)F)c(-c3ccccc3Cl)c2n1	-3	-9
CCc1noc(C)c1C(=O)OCC(=O)NC(=O)NC1CCCC1	-2	-1
CCOC(=O)c1c(NC(=O)c2cc(OC)c(OC)c(OC)c2)sc2c1CCCC2	27	17
CC1CNC(=O)CCN1Cc1cn[nH]c1-c1ccc(F)cc1 (stereo not given)	-1	-3
CC(=O)N1CCC[C@H]1C(=O)N1CCC(c2ccccc2)CC1	3	1
CCCN(CC(=O)Nc1cc(-c2ccccc2)nn1-c1ccccc1Cl)C(=O)c1cc(C(F)(F)F)cc(C(F)(F)F)c1	18	29
CCOC(=O)C(C)CNC(=O)c1nccn1C (stereo not given)	28	20
COc1ccc(C2CC(=O)C3C(=Nc4ccccc4NC3c3c(F)cccc3F)C2)cc1 (stereo not given)	1	-3
O=C(c1c(F)cccc1C(F)(F)F)N1CCC(CCc2ccc3c(c2)OCO3)CC1	0	3
CSc1[nH]c(=O)c(C(=O)Nc2ccsc2)cc1C#N	-3	-3
O=C(NC1CCCN(C(=O)C2CC2)C1)c1ccc(Cl)cn1 (stereo not given)	-7	-11
COc1ccc(COC(=O)C2=C(C)NC(=O)NC2c2ccccc2OC)cc1 (stereo not given)	-1	-3
CCC(=O)Nc1c(Cl)cc(S(N)(=O)=O)cc1Cl	6	7
Cc1cc(C)n2nc(SCc3cc(=O)oc4cc5c(cc34)CCC5)nc2n1	1	-1
CC(=O)Nc1cccc(NS(=O)(=O)c2cn(C)c(=O)n(C)c2=O)c1	1	-1
CC(O)CN(CC(C)O)C(=O)c1ccc(Nc2cc(N3CCOCC3)nc(N)n2)cc1 (stereo not given)	24	21
O=S1(=O)CCC(NS(=O)(=O)c2ccc3ccccc3c2)C1 (stereo not given)	3	0
COc1cccc2c1OCCCN(Cc1ncccc1C(=O)O)C2	-5	-5
COc1ccc(NC(=O)c2ccncc2Cl)cc1NC(=O)c1ccccc1	-1	-2
CCn1nccc1NC(=O)C1CC=CCC1 (stereo not given)	4	0
CCC(CC)C(Br)C(=O)NC(N)=O (stereo not given)	1	-1
O=C1SC(=Cc2cccc([N+](=O)[O-])c2)C(=O)N1CCBr	19	16
Cc1ccc(F)cc1S(=O)(=O)N1CCN(C2c3ccccc3CCc3ccccc32)CC1	4	3
Cc1ccc(C)c(OC2CCNCC2)c1	3	1
Cc1ccc(C)c(Cn2cnc3c(nnn3-c3cccc(Cl)c3)c2=O)c1	8	10
CC1=C(C(=O)OCC(C)C)C(c2cccc(NC(=O)c3ccc(Cl)cc3)c2)NC(=S)N1C (stereo not given)	14	9
CCOC(=O)Cn1c(=NC(=O)c2ccccc2[N+](=O)[O-])sc2c(C)cc(C)cc21	2	0
(continued)
SMILES	NPYLR7 agonist	NPYLR7 agonist max-min
O=S(=O)(c1ccc(Cl)cc1)c1ccccc1Cl	6	0
Nc1cc(-c2cccc(C(F)(F)F)c2)nn1-c1ccc(C(=O)NCc2ccc3c(c2)OCO3)cc1	-10	-16
CC(=O)N1CCN(c2ncccc2CNC(=O)NCCc2ccccc2)CC1	20	6
COc1cc(C(=O)N2CCN(c3ncccc3C(=O)NCCc3ccc(OC)c(OC)c3)CC2)cc(Cl)n1	26	13
COc1ccccc1-c1csc2nc(CN(Cc3ccco3)CC(O)COC(C)C)[nH]c(=O)c12 (stereo not given)	14	13
CN(CCC(=O)Nc1ccc2c(c1)n(C)c(=O)n2C)c1ccccc1	1	1
CCOC(=O)c1cc2n(n1)C(C(F)(F)F)CC(C)N2 (stereo not given)	7	0
C=C(C)COc1cccc(C(=O)N2CCC[C@H]2CO)c1	-2	-9
c1ccc(-c2noc(CSc3nc4ccccc4o3)n2)cc1	15	8
Cc1sc2nc(SCc3cc(=O)[nH][nH]3)n(Cc3ccco3)c(=O)c2c1C	-1	-2
Cc1ccc2nc(SCC(=O)NC(C)C)nc(=O)n2c1	9	7
COc1ccc(CNC(=O)c2cn(C)c3c(=O)n(Cc4ccccc4)c(=O)[nH]c23)cc1	4	1

An excerpt of the results above, for reference:
SMILES	NPYLR7 agonist	NPYLR7 agonist max-min
O=S(=O)(c1ccc(Cl)cc1)c1ccccc1Cl	6	0
Nc1cc(-c2cccc(C(F)(F)F)c2)nn1-c1ccc(C(=O)NCc2ccc3c(c2)OCO3)cc1	-10	-16
CC(=O)N1CCN(c2ncccc2CNC(=O)NCCc2ccccc2)CC1	20	6
COc1cc(C(=O)N2CCN(c3ncccc3C(=O)NCCc3ccc(OC)c(OC)c3)CC2)cc(Cl)n1	26	13
COc1ccccc1-c1csc2nc(CN(Cc3ccco3)CC(O)COC(C)C)[nH]c(=O)c12 (stereo not given)	14	13
CN(CCC(=O)Nc1ccc2c(c1)n(C)c(=O)n2C)c1ccccc1	1	1

(more compounds)
SMILES	NPYLR7 agonist	NPYLR7 agonist max-min
CCCc1nc(N2CCN(Cc3cccs3)CC2)c2cnn(-c3ccccc3)c2n1	-4	-3
CC1(C)CC(=O)C2=C(C1)OC(=N)C(C#N)C2c1c(F)cccc1Cl (stereo not given)	-6	-10
Cc1cnc(C)c(N2CCN(C(=O)c3cn(C4CCCCC4)nn3)CC2)n1	19	4
Cc1oc(-c2ccc(Cl)cc2)nc1CN1CCCN(c2ccccc2)CC1	12	-1
Cc1cccc(NC(=O)CSc2nnc(CNC(=O)c3ccc(C(C)(C)C)cc3)n2-c2ccc([N+](=O)[O-])cc2)c1	-5	6
CN1CCN(Cc2nccn2CC(F)(F)F)c2ccccc21	1	-1
CCOC(=O)c1cc(-c2ccc(N3CCN(C(=O)c4cccnc4SC)CC3)cc2)n(-c2ccccc2OC)n1	4	0
CCc1ccc(S(=O)(=O)Nc2cc(-c3ccccc3)nn2C2CCS(=O)(=O)C2)cc1 (stereo not given)	-1	-3
Cn1c(=O)n(CC(=O)N2CCN(S(=O)(=O)c3ccccc3)CC2)c2ccccc21	7	14
CC1CCCC(C)N1CC(O)Cn1cc(/C=N\O)c2ccccc21 (stereo not given)	8	8
CCOC(=O)[C@H]1C[C@]2(CCCCN(CCO)C2=O)N(C(=O)c2cc(C)oc2C)[C@H]1c1ccco1	5	18
O=C(NCCOc1ccccc1)N1CCN(S(=O)(=O)c2cc(F)ccc2F)CC1	13	16
C=CCc1cccc(Cl)c1OCCON1C(=O)CCC1=O	0	2
Cc1ccc(/C=C/S(=O)(=O)NC2CC(=O)N(C)C2)cc1 (stereo not given)	-1	-3
COC(=O)C1=C(C)N=c2s/c(=C/c3ccc(C)cc3)c(=O)n2C1c1ccccc1Cl (stereo not given)	-4	-10
Cc1cc(C)c2nc(N(Cc3ccco3)C(=O)c3cc(C)no3)sc2c1	0	0
CCN1C(=O)C(=Cc2c(N3CCCC3)nc3c(C)cccn3c2=O)SC1=S	7	6
Cc1nn(-c2ccc(N3CCOCC3)nn2)c2c1C(c1ccc(OCc3ccccc3)cc1)CC(=O)N2 (stereo not given)	0	-4
COc1ccc(-c2nnc3ccc(SCC(=O)N4CCCCCC4)nn23)cc1	10	13
CCOc1cccc(CN(Cc2cccnc2)CC2CCCN(C3CCCCC3)C2)c1O (stereo not given)	0	-5
Clc1nc2ccccc2cc1/C=N\Nc1nc(-c2ccccc2)c2cc(Br)ccc2n1	-6	-1
O=C(CCC1CCN(C(=O)C2=CCCC2)CC1)NCc1ccc(F)cc1	9&17	5&3
O[C@@H]1CN(c2cc(N3CCOCC3)ncn2)CC[C@H]1c1ccc2ccccc2c1	-4	-6
Cc1cccc(NCC(=O)N(C)C(C)c2ccc(F)cc2)c1C(N)=O (stereo not given)	1	-19

Not all compounds are listed; the hit share may differ from the screen's.
